RN4220 kill: S. aureus RN4220 growth inhibition | OD600, 16 h | inhibition, % (test concentration not listed) | actives 0.33% (n = 330,000) | AID 1259311;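 active = z-score of -3 or lower and OD600 up to 0.18 on both plates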;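 note: plate controls were untreated cells for no effect and reference antibiotic for full effect; stock transfer was 100 nL into about 80 µL; one replicate is shown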
BJeLR viability: BJeLR cell viability loss | AID 1554 | actives 0.17% (n = 300,000) | inhibition, % (concentration not given with the values) | BJeLR (HRASV12) viability, CellTiter-Glo ATP luminescence, 48 h; reference of the scale not given here;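 active = replicate mean above 50%; inconclusive = above 50% but judged a plate artefact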;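 note: 50 nL library stock added to about 25 µL; numbers are from one replicate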
Sa ugtP lethal: growth inhibition of S. aureus ugtP deletion strain; S. aureus RN4220 ugtP deletion, OD600 growth, 16 h; some inactives read as strong as hits; growth inhibition, % (concentration not given with the values); actives 0.54% (n = 330,000);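 active = z-score under -3 and OD600 up to 0.15 on both plates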;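 note: plate controls were untreated wells for no effect and antibiotic for full effect; wells of about 80 µL received 100 nL stock; the first replicate is given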
Autofluor counter: flagged as autofluorescent in microsphere protease counterscreen | compound autofluorescence counterscreen, microsphere flow cytometry; hits give high values | fluorescence intensity (concentration not given with the values) | actives 3.1% (n = 360,000);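 active = at least 3 SD above the mean of all compounds, about 16000 in these data; inconclusive = too few beads counted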;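 note: 100 nL of 1 mM stock went into each well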
PrP UTR inh: inhibition of PrP 5' UTR reporter expression | cell-based PrP 5' UTR mRNA reporter, plate reader | inhibition, % (test concentration not listed) | actives 0.35% (n = 340,000);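 active = every replicate at 50% or more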;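 note: 0 = median of the neutral control wells; tested in H4 reporter cells; numbers are from one replicate; inactives centre near -14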
Mtb hypoxia rep: Mtb hypoxia fluorescent reporter inhibition. actives 0.1% (n = 300,000). fluorescence inhibition, % (no concentration beside the values). AID 1159583. M. tuberculosis hypoxia-regulated fluorescent reporter, fluorescence;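 active = 35 to 45% if threefold the growth effect, above 45% if 1.5-fold the growth effect; inactive = the rest, general growth blockers included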;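 note: wells of about 50 µL received 100 nL stock; 0% = vehicle wells and 100% = reference inhibitor wells; whole bacteria with a GFP reporter of the hypoxia response; strong numbers were not always called active; many hits fall short of the cut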
Mtb hypoxia rep growth: further read-out of Mtb hypoxia rep, marked with its call; growth inhibition, %; measured here: M. tuberculosis growth (absorbance);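 0% = vehicle and 100% = reference antibiotic; read after six days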
An asterisk follows results filed as active; ? = inconclusive; / = not tested or not shown.

Structure | RN4220 kill | BJeLR viability | Sa ugtP lethal | Autofluor counter | PrP UTR inh | Mtb hypoxia rep | Mtb hypoxia rep growth
COCC(C)OC(=O)c1c(N)n(CC(C)C)c2nc3ccccc3nc12 (configuration not stated) | 7.1 | -10 | 4 | 4446 | -20 | 5 | 10
CCCCNC(=O)Nc1ccccc1CC | 2.2 | -8 | -5 | 4189 | -17 | / | /
CCN(Cc1ccccc1)C(=O)c1ccc(C(=O)N(CC)Cc2ccccc2)cc1 | -1.4 | 3 | 7 | 3923 | -13 | 18 | 7
O=C1OC(c2cccs2)=N/C1=C\c1ccc(-c2ccccc2Cl)o1 | 5.0 | 2 | 5 | 9746 | -23 | -7 | -2
CCOC(=O)N1CCN(C(=O)C2CCN(C(=O)c3ccc([N+](=O)[O-])cc3)CC2)CC1 | 4.1 | 4 | 8 | 6023 | -9 | 12 | 10
O=C(NCCC1CCCCN1S(=O)(=O)c1ccc(F)cc1)C(=O)Nc1ccccc1 (configuration not stated) | 1.7 | 3 | 12 | 6348 | -19 | 12 | 2
CCOC(=O)CC1=C(C(=O)OCC)C2(C(=O)Nc3ccccc32)C(C#N)=C(N)O1 (configuration not stated) | 53 | 3 | 44 | 4337 | -2 | 4 | 7
Cc1ccc2nc(-c3ccccn3)cc(C(=O)NC3CCN(C)CC3)c2c1 | -1.3 | -2 | 8 | / | / | / | /
COc1ccc(C(=O)c2ccc(N3CCN(C4CC(=O)NC4=O)CC3)cc2)cc1F (configuration not stated) | 0.4 | -3 | -4 | 2475 | -6 | / | /
CN(C)c1ccc(NC(=O)c2cccc([N+](=O)[O-])c2)c2ccccc12 | 3.2 | -14 | 13 | / | -12 | 7 | 6
CCn1cc(SCC(=O)NCC2CCCO2)c2ccccc21 (configuration not stated) | -0.1 | 7 | -1 | 5860 | -13 | 4 | 8
NS(=O)(=O)c1cccc(NC(=O)COC(=O)CC2Sc3ccccc3NC2=O)c1 (configuration not stated) | 3.1 | / | -13 | 3398 | -58 | 16 | 7
CCOC(=O)Cn1cnc2c(nnn2-c2ccc(C)cc2)c1=O | 3.6 | 6 | 12 | 12072 | -20 | 9 | 5
COc1ccc(CNC(=O)CN(Cc2ccc(C)cc2)S(=O)(=O)c2ccc(Cl)cc2)cc1 | 4.5 | 1 | 8 | 8953 | -18 | 7 | 5
COCC(=O)N1CCCC(C(=O)c2ccc3c4c(cccc24)CC3)C1 (configuration not stated) | 4.1 | 1 | -10 | 4539 | -5 | -3 | -2
O=C(CSC1CS(=O)(=O)c2cc([N+](=O)[O-])ccc21)NNC(=O)c1ccc(Cl)cc1 (configuration not stated) | 1.2 | 7 | 4 | / | -6 | 5 | 17
O=C(NCCCN1CCOCC1)C1CCN(S(=O)(=O)c2ccccc2)CC1 | 4.1 | -12 | 6 | 5862 | -15 | 4 | -3
Cc1cc(C)nc(NC(=O)/C=C/c2ccc3c(c2)OCO3)c1 | / | -2 | / | 2547 | -106 | / | /
CCOC(=O)c1cc(-c2cccs2)nn1CCC#N | 7.7 | -7 | 13 | 3599 | -15 | 7 | 4
COC(=O)c1ccc(Oc2nc(C(N)=O)cc(-c3ccccc3)n2)cc1 | -2.0 | -4 | -12 | 6089 | -14 | 2 | 9
Cc1nc(SCc2ccccc2)c(C(F)(F)F)c(=O)[nH]1 | -3.4 | -3 | -6 | 4779 | -13 | / | /
CCCCCCC(=O)Nc1nc(C)c(-c2csc(Nc3cc(Cl)ccc3OC)n2)s1 | -4.4 | 0 | -3 | 3794 | 2 | -5 | 6
Nc1ncc(-c2cc3ccccc3oc2=O)s1 | 1.4 | 0 | -1 | 2764 | -86 | / | /
CC1(C)NC(=O)N(CC(=O)OCC(=O)Nc2cc(S(=O)(=O)N3CCCCC3)ccc2Cl)C1=O | 5.6 | -3 | 21 | 2546 | -11 | 12 | 8
Nc1cc(=O)[nH]c(SCC(=O)N2N=C(c3ccc4ccccc4c3)CC2c2ccccc2)n1 (configuration not stated) | -1.1 | 10 | -22 | 5007 | -16 | 14 | -2
COc1ccc(-c2csc(NC3=NCCCCC3)n2)cc1 | 4.5 | -7 | -9 | 2398 | -16 | 13 | 10
COc1ccc(C(=O)n2ncc(C#N)c2N)cc1 | 1.5 | 7 | 9 | 3448 | -12 | 0 | 3
CC(=O)Nc1ccc(S(=O)(=O)Nc2nnc(C3CCCCC3)s2)cc1 | 0.6 | -7 | 4 | 4077 | -6 | / | /
Clc1ccc(C(c2ccccc2)c2ncc[nH]2)cc1 (configuration not stated) | 4.6 | 4 | 4 | 2013 | -21 | 8 | 5
Cc1nc(-c2ccc(Cl)cc2)sc1C1(C)CC(c2ccc(OC(F)(F)F)cc2)=NO1 (configuration not stated) | 1.3 | 3 | 7 | 3994 | -28 | 4 | 9
CC(C)CC(=O)Nc1ccccc1N1CCCC1 | 2.6 | -4 | 3 | 2167 | -12 | 7 | 7
CN(CC(=O)Nc1ccc(Cl)cc1)C(=O)CCNC(=O)c1ccc(Cl)cc1 | 5.9 | / | 1 | 7154 | -30 | 6 | 7
O=C(NCc1ccco1)c1cc(S(=O)(=O)N2CCCc3ccccc32)ccc1Cl | 2.0 | 0 | 0 | 4592 | -15 | / | /
COc1ccc(C)cc1N(C(=O)c1ccco1)C(C(=O)NC1CCCC1)c1ccc(N2CCOCC2)cc1 (configuration not stated) | 1.1 | -6 | -2 | 4916 | 10 | -20 | -5
CCOc1ccc(NC(=O)C(C)Sc2nnc(C)n2C)cc1 (configuration not stated) | 1.5 | 3 | 9 | 4206 | -12 | / | /
Cc1cc(=O)[nH]c(SCC(=O)Nc2nonc2C)n1 | 1.8 | -3 | 4 | 3427 | -17 | 3 | 5
Cc1cc(C(=O)COC(=O)c2ccc(O)cc2O)c(C)n1-c1ccc(OC(F)F)cc1 | 41 | / | -10 | 4417 | -22 | 3 | -7
CCSCCNC(=O)c1cc(-n2cnnc2)ccc1Cl | 4.6 | 0 | 3 | 21120* | -14 | 7 | 1
CCOCCCN1C(=O)CN(C2CCCCC2)C(=O)C1c1ccc(OC)c(OC)c1 (configuration not stated) | 1.6 | -9 | 6 | 10813 | -10 | -1 | 0
CCN(c1ccccc1)S(=O)(=O)c1cccc(C(=O)NCC(c2cccs2)N2CCOCC2)c1 (configuration not stated) | 3.0 | -3 | -6 | 4284 | -5 | -8 | -10
COc1ccc(/C=C/C(=O)Oc2ccc(/C=N/NC(=O)c3ccccc3)cc2)cc1OC | / | 7 | / | 10331 | -29 | / | /
O=C(Nc1cccnc1)c1ccc2ccccc2c1O | 8.6 | 4 | 7 | 4040 | -72 | 9 | 2
Cn1c(N)c(C(=O)COC(=O)CCCN2C(=O)c3ccccc3C2=O)c(=O)n(C)c1=O | 8.3 | 13 | 6 | 3426 | -7 | -1 | 0
COc1ccc(CN(C)C(=O)c2ccc(NS(=O)(=O)c3ccc4[nH]c(=O)[nH]c4c3)cc2)c(OC)c1 | 3.4 | 0 | 7 | 5262 | -18 | 6 | 9
CCN(CC)CCCC(C)NC1=NCCCCC1 (configuration not stated) | -7.6 | -5 | 0 | 4641 | 4 | -2 | 14
Cc1cc(NC(=O)c2ccc3c(c2)OCCO3)ccc1NC(=O)c1ccco1 | 6.4 | 1 | 2 | 4793 | -35 | -2 | -6
O=C(Nc1ccccc1)c1ccc(NC(=O)c2cccs2)cc1 | 1.3 | 1 | 0 | ? | -58 | 5 | -1
CCOC(=O)C1CCCN(c2c(NCCN3CCCCC3CC)c(=O)c2=O)C1 (configuration not stated) | -1.8 | -12 | 4 | 5066 | -27 | 2 | 10
COc1cccc(C(=O)NN=C(C)c2ccc(NC(=O)Cc3ccccc3)cc2)c1OC | -1.0 | / | -2 | / | / | -1 | 3
Cc1ccc(C(=O)OCc2cn3ccccc3n2)cc1 | -5.3 | 0 | -1 | 2857 | -40 | 14 | 10

Taken from the listing, 17 compounds:
Structure | RN4220 kill | BJeLR viability | Sa ugtP lethal | Autofluor counter | PrP UTR inh | Mtb hypoxia rep | Mtb hypoxia rep growth
COc1ccc(-c2csc(NC3=NCCCCC3)n2)cc1 | 4.5 | -7 | -9 | 2398 | -16 | 13 | 10
COc1ccc(C(=O)n2ncc(C#N)c2N)cc1 | 1.5 | 7 | 9 | 3448 | -12 | 0 | 3
CC(=O)Nc1ccc(S(=O)(=O)Nc2nnc(C3CCCCC3)s2)cc1 | 0.6 | -7 | 4 | 4077 | -6 | / | /
Clc1ccc(C(c2ccccc2)c2ncc[nH]2)cc1 (configuration not stated) | 4.6 | 4 | 4 | 2013 | -21 | 8 | 5
Cc1nc(-c2ccc(Cl)cc2)sc1C1(C)CC(c2ccc(OC(F)(F)F)cc2)=NO1 (configuration not stated) | 1.3 | 3 | 7 | 3994 | -28 | 4 | 9
CC(C)CC(=O)Nc1ccccc1N1CCCC1 | 2.6 | -4 | 3 | 2167 | -12 | 7 | 7
CN(CC(=O)Nc1ccc(Cl)cc1)C(=O)CCNC(=O)c1ccc(Cl)cc1 | 5.9 | / | 1 | 7154 | -30 | 6 | 7
O=C(NCc1ccco1)c1cc(S(=O)(=O)N2CCCc3ccccc32)ccc1Cl | 2.0 | 0 | 0 | 4592 | -15 | / | /
COc1ccc(C)cc1N(C(=O)c1ccco1)C(C(=O)NC1CCCC1)c1ccc(N2CCOCC2)cc1 (configuration not stated) | 1.1 | -6 | -2 | 4916 | 10 | -20 | -5
CCOc1ccc(NC(=O)C(C)Sc2nnc(C)n2C)cc1 (configuration not stated) | 1.5 | 3 | 9 | 4206 | -12 | / | /
Cc1cc(=O)[nH]c(SCC(=O)Nc2nonc2C)n1 | 1.8 | -3 | 4 | 3427 | -17 | 3 | 5
Cc1cc(C(=O)COC(=O)c2ccc(O)cc2O)c(C)n1-c1ccc(OC(F)F)cc1 | 41 | / | -10 | 4417 | -22 | 3 | -7
CCSCCNC(=O)c1cc(-n2cnnc2)ccc1Cl | 4.6 | 0 | 3 | 21120* | -14 | 7 | 1
CCOCCCN1C(=O)CN(C2CCCCC2)C(=O)C1c1ccc(OC)c(OC)c1 (configuration not stated) | 1.6 | -9 | 6 | 10813 | -10 | -1 | 0
CCN(c1ccccc1)S(=O)(=O)c1cccc(C(=O)NCC(c2cccs2)N2CCOCC2)c1 (configuration not stated) | 3.0 | -3 | -6 | 4284 | -5 | -8 | -10
COc1ccc(/C=C/C(=O)Oc2ccc(/C=N/NC(=O)c3ccccc3)cc2)cc1OC | / | 7 | / | 10331 | -29 | / | /
O=C(Nc1cccnc1)c1ccc2ccccc2c1O | 8.6 | 4 | 7 | 4040 | -72 | 9 | 2

(list continues)
Structure | RN4220 kill | BJeLR viability | Sa ugtP lethal | Autofluor counter | PrP UTR inh | Mtb hypoxia rep | Mtb hypoxia rep growth
O=C(NCC1CCOCC1)C1CCC(=O)N(Cc2cccc(C(F)(F)F)c2)C1 (configuration not stated) | 1.7 | -10 | 5 | 5402 | -10 | -3 | -3
CC(C)NC(=O)NC(=O)CSc1nncs1 | 2.1 | 4 | 5 | 2411 | -30 | 3 | 0
COc1ccc(OCC(O)CNC(=O)Nc2ccc(F)cc2)cc1 (configuration not stated) | 1.2 | -15 | 3 | 4400 | -12 | 3 | 0
COc1ccc2[nH]c(=O)c(CN(CC3CCCO3)C(=S)Nc3cccc(C)c3)cc2c1 (configuration not stated) | 14 | 3 | -2 | 4642 | -4 | 10 | 2
Cc1cc(C)n(-c2ccc(C(=O)NCc3ccc4c(c3)OCO4)cc2)n1 | -3.0 | -8 | 0 | 8455 | -23 | 6 | 4
CC(=O)Nc1cccc(Oc2ccc(-c3noc(C)n3)cc2)c1 | 3.4 | 12 | -1 | 4729 | -53 | / | /

Bioassay records from PubChem BioAssay.
